Screening results from PubChem.
NPYLR7 ag: mosquito NPYLR7 agonism; HEK293T NPYLR7/Galpha15, GCaMP6s calcium fluorescence; activation, % at 10 µM; 270,000 tested, 0.15% active; in the data active means activation above about 40%;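 further: 0% = vehicle and 100% = reference agonist at the receptor; some compounds past the cut are filed as inactive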
NPYLR7 ag max-min: also measured in NPYLR7 ag; calls as there; activation, %; measured here: Max-Min RFU normalised activation; some inactives read as strong as hits;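 span of the calcium signal over five minutes; 0% = vehicle and 100% = native peptide agonist; compound fluorescence can raise it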
* = called active by the depositor; & = joins results of further samples.

SMILES | NPYLR7 ag | NPYLR7 ag max-min
CN(C)CCCn1cnc2c1c(=O)n(C)c(=O)n2C | 1 | -1
NC1=NC(c2ccccc2)n2c(nc3ccccc32)N1 (stereo not drawn) | 5 | -3
O=C(Nc1cccnc1)C(=O)NC1CCN(c2cccc(F)c2)CC1 | 2 | 0
Cn1cc(-c2c(-c3ccccc3)ncn2CCN2CCCOC2=O)cn1 | 23 | 7
CC(=O)c1cc2ncc(C(=O)NCCCN(C)C)cc2[nH]1 | -2 | -4
COC(=O)c1ccc(C2C3CCCC(C4CCCCC4)C3=Nc3nnnn32)cc1 (stereo not drawn) | -2&1 | 0&-2
COCCNCc1csc(COc2ccc(OC)cc2)n1 | 34 | 31
Cc1cc(Oc2ccccc2Cl)nc(SCc2c(F)cccc2F)n1 | 21 | 19
O=S(=O)(NCc1ccccc1)N1CC2C[C@@H]3CC1C[C@H](C2)C3 | 13 | 13
Cn1nccc1C(=O)N1CC[C@@H](c2ccc3ccccc3c2)[C@H](O)C1 | 10 | 6
CCc1nc2n(n1)C(=O)C(C(c1cccc(OC)c1)N1CCN(c3ccc(OC)cc3)CC1)S2 (stereo not drawn) | 0 | -2
COC(=O)C1=NOC2C(=O)N(c3ccc(OC)cc3)C(=O)C12 (stereo not drawn) | -6 | -6
CCc1nc2c(OCc3ccc(Cl)cc3Cl)cccn2c1N(C)C(=O)Nc1ccccc1OC | 10 | -1
C=CCOC(=O)C1C(C)=Nc2nc(SCCC)[nH]c(=O)c2C1c1ccc(C)cc1 (stereo not drawn) | 10 | 7
Cc1nc(CN(C)C(=O)NC2CCN(C(=O)c3ccoc3C)CC2)cs1 | 11 | 4
Cc1cnccc1CN(C)Cc1ccnn1-c1ccccc1 | 4 | 3
COc1ccccc1CC1(C)C(=O)Nc2ccc(S(=O)(=O)NC3CCCCC3)cc21 (stereo not drawn) | 0 | 2
CCn1cc(NC(=O)N2CCCN(C(=O)CC3CCCC3)CC2)cn1 | 7 | 9
COc1cc2c(cc1OC)C1CN(C(=O)c3cc(Cl)sc3Cl)CC(=O)N1CC2 (stereo not drawn) | 9 | 15
CC(=O)OCC(=O)N1CCC(c2cn(Cc3ccc(C(F)(F)F)cc3)c3ccccc23)CC1 | 4 | -5
O=C(O)c1nn(CCO)c2c1CN(C(=O)C1(c3ccccc3)CCCC1)CC2 | 3 | -8
Nc1ncnc(NCc2cccc(Cl)c2)c1[N+](=O)[O-] | 10 | 7
CC(C)(C)c1csc(NC2=NCCC2)n1 | -1 | 0
O=C(Nc1ccc(-c2cscn2)cc1)C1CCCN(Cc2ccon2)C1 (stereo not drawn) | 11 | 5
CSc1ccccc1C(=O)N1CCCC(CO)(Cc2ccccc2)C1 (stereo not drawn) | 4 | 5
CC1(C)C(=O)C2(C(=O)Nc3cccc(NC(=O)C45CCC(C4)C(C)(C)C5=O)n3)CCC1C2 | -2 | -6
CC(C)(C)OC(=O)NCc1nn[nH]n1 | 7 | -7
CCCNC(=O)Cn1nc2c(c1NC(=O)c1c(F)cccc1Cl)CSC2 | 5 | 14
COc1ccc(Cc2n[nH]c(=S)o2)cc1 | 25 | 30
CC1(C2CCNCC2)NC(=O)N(Cc2cccc3ccccc23)C1=O (stereo not drawn) | -1 | -2
Cc1cc2c(o1)CC(C)(C)CC2NCC1CNc2ccnn2C1 (stereo not drawn) | -14 | -15
Cc1cccn2c(CC(=O)NCc3ccc4c(c3)CC(C)O4)cnc12 (stereo not drawn) | 12 | 9
Cc1ccc(NC(=O)Cn2c3ccccc3c(=O)c3ccccc32)cc1F | -2 | -8
O=C(c1noc2c1CCCC2)N1CCc2c([nH]c3ccccc23)C1c1ccccc1F (stereo not drawn) | -4 | -7
COc1ccc(-c2cc(CC(=O)Nc3cccnc3)no2)cc1OC | -3 | 2
COC(=O)CN1C(=O)CN(c2nc(N(C)C)nc(N(C)C)n2)C1=O | 17 | 9
COCc1cc(CNC(=O)c2ccccc2C2CCNC2)[nH]n1 (stereo not drawn) | 5 | 4
CCOCCOC(C)C(=O)NS(=O)(=O)c1cccc(Cl)c1 (stereo not drawn) | 4 | 4
Cc1cccc(C(=O)N2CCCN(C(C)C(N)=O)CC2)c1 (stereo not drawn) | -2 | 0
CC(C)Cc1nc(C2CCCN2C(N)=O)n(-c2cccc3ccccc23)n1 (stereo not drawn) | 22 | 13
CC(C)c1cc(C(C)C)n(C2CCN(C(=O)CCc3ccco3)CC2)n1 | 0 | 2
CCOC(=O)c1ccc(NC(=O)C2(c3ccc(OC)c(OC)c3)CCCC2)cc1 | 4 | 1
Cc1ccc(Oc2ncccc2CNC(=O)c2cc(C3CC3)[nH]n2)cn1 | 4 | 25
COc1ccc(C2(C(=O)N3CCCC(N(C)C)CC3)CCCC2)cc1 (stereo not drawn) | -4 | -5
COc1ccc(OC)c(NC(=O)Cn2cc(OC)c(=O)cc2CSc2ncccn2)c1 | -5 | -10
COc1cccc(/C=C2/SC(=S)N(CCC(=O)N3CCCCC3)C2=O)c1 | 3 | -11
COc1ccc(CCCNC(=O)C2(C)Cc3c(-c4ccc5c(c4)OCO5)ccnc3O2)cc1 (stereo not drawn) | 0 | -2
CC1CCC(NS(=O)(=O)c2ccc(N3CCCC(C(=O)N4CCOCC4)C3)c([N+](=O)[O-])c2)CC1 (stereo not drawn) | 0 | -1
CC(C)N(C)C(=O)C1CSCN1S(=O)(=O)c1ccc2c(cnn2C(C)C)c1 (stereo not drawn) | -1 | 10
CCOc1ccc2ccccc2c1C(=O)Oc1coc(CSc2ncccn2)cc1=O | -13 | -7

Compounds listed so far containing an aryl methoxy group, in the order listed:
SMILES | NPYLR7 ag | NPYLR7 ag max-min
COCCNCc1csc(COc2ccc(OC)cc2)n1 | 34 | 31
CCc1nc2n(n1)C(=O)C(C(c1cccc(OC)c1)N1CCN(c3ccc(OC)cc3)CC1)S2 (stereo not drawn) | 0 | -2
COC(=O)C1=NOC2C(=O)N(c3ccc(OC)cc3)C(=O)C12 (stereo not drawn) | -6 | -6
CCc1nc2c(OCc3ccc(Cl)cc3Cl)cccn2c1N(C)C(=O)Nc1ccccc1OC | 10 | -1
COc1ccccc1CC1(C)C(=O)Nc2ccc(S(=O)(=O)NC3CCCCC3)cc21 (stereo not drawn) | 0 | 2
COc1cc2c(cc1OC)C1CN(C(=O)c3cc(Cl)sc3Cl)CC(=O)N1CC2 (stereo not drawn) | 9 | 15
COc1ccc(Cc2n[nH]c(=S)o2)cc1 | 25 | 30
COc1ccc(-c2cc(CC(=O)Nc3cccnc3)no2)cc1OC | -3 | 2
CCOC(=O)c1ccc(NC(=O)C2(c3ccc(OC)c(OC)c3)CCCC2)cc1 | 4 | 1
COc1ccc(C2(C(=O)N3CCCC(N(C)C)CC3)CCCC2)cc1 (stereo not drawn) | -4 | -5
COc1ccc(OC)c(NC(=O)Cn2cc(OC)c(=O)cc2CSc2ncccn2)c1 | -5 | -10
COc1cccc(/C=C2/SC(=S)N(CCC(=O)N3CCCCC3)C2=O)c1 | 3 | -11
COc1ccc(CCCNC(=O)C2(C)Cc3c(-c4ccc5c(c4)OCO5)ccnc3O2)cc1 (stereo not drawn) | 0 | -2

Next part
SMILES | NPYLR7 ag | NPYLR7 ag max-min
O=S(=O)(Nc1ccc(O)c(Cl)c1)c1cccs1 | 7 | 4
Cn1c(=O)c2c(-c3ccccc3)n(CCCO)cc2n(C)c1=O | 12 | 5
Nc1nnc(CCCc2cccs2)o1 | 6 | 3
O=C(c1ccc(SC(F)(F)F)cc1)N1CCc2c([nH]c3ccccc23)C1c1ccc(C(F)(F)F)cc1 (stereo not drawn) | 12 | 4
COc1ccc2c(c1)c1nc3n(c(=O)c1n2Cc1cc(=O)n2ccccc2n1)CCS3 | 3 | 0
CCc1ccc(C(=O)N2CCC3(CC2)OCC(C(=O)NCc2ccco2)N3C(=O)c2ccc(F)cc2)cc1 (stereo not drawn) | 0 | 8
O=C(Cc1ccon1)N1CCCSc2ccc(Cl)cc21 | 0 | 0
COc1ccc(-c2cccc(NC(=O)Nc3ccc(F)c(F)c3)c2)nn1 | 8 | 4
CC(C(=O)NC1CC1)N1CCC(C(=O)Nc2ccc(Br)cn2)CC1 (stereo not drawn) | 4 | 3
CCN(C)c1c(C)nc2c(OCc3ccc(C(F)(F)F)cc3)cccn12 | 17 | 1
Cc1nc2c(C)cccn2c(=O)c1NC(=O)c1ccc(-c2ccccc2)cc1 | -4 | -4
Cc1nnc(N2CCCC(C)C2)c(C#N)c1C (stereo not drawn) | 5 | 2
CO[C@H]1CCC[C@@H]1OC(=O)CCc1ccsc1 | 8 | 7
CC(=O)Nc1ccc(S(=O)(=O)NC(C)C)cc1 | 1 | -4
O=C(Cn1ccc(=O)[nH]c1=O)NNc1ccc(Cl)c(Cl)c1 | 2 | -2
COc1ccc(CCN(C)S(=O)(=O)c2ccc(Cl)cc2F)cc1OC | 8 | 10
O=C(NCc1ccc(F)cc1)c1csc(CN(Cc2ccc(F)cc2)C(=O)Nc2ccc(Cl)c(Cl)c2)n1 | 2 | 10
CCc1csc(CNC(=O)CC(=O)Nc2ccccc2C)n1 | -4 | -13
O=C(C1CC1)N(Cc1ccccc1Cl)CC1CC(c2ccc(Cl)c(Cl)c2)=NO1 (stereo not drawn) | 26 | 24
CC(c1cccnc1)N(C)Cc1cccc(-n2cccn2)c1 (stereo not drawn) | 3 | 0
CC(CN(C)C(=O)OC(C)(C)C)C(=O)NCc1n[nH]c(=S)n1C1CC1 (stereo not drawn) | -5 | -5
CCN(CC)CCCn1c2c(c(SCC(=O)Nc3c(C)cc(C)cc3C)nc1=O)CCC2 | 0 | 5
COC(=O)c1ccc2oc(=O)n(C3CCN(C(=O)CCSC)CC3)c2c1 | 16 | 29
C#CCN(CC=C)Cc1nc(-c2ccc(OCC)cc2)oc1C | -10 | -14
Cc1csc(S(=O)(=O)C(C)c2nc(C3CC3)no2)n1 (stereo not drawn) | 3 | 1
CCC(CC)C(=O)N(C)c1c(C)nc2ccc(C(=O)NC3CCN(C)CC3)cn12 | 15 | 7
COc1ccc(C(=O)N[C@H]2CN[C@H](C(=O)N3C[C@H]4CC=CC[C@H]4C3)C2)cc1 | 19 | 2
Cc1ccc(C(=O)N2CCN(c3nc4ccccc4nc3C)CC2)cc1C | 13 | 9
Cc1cc2nc(C)c(CCC(=O)N(C)Cc3ccsc3)c(C)n2n1 | -3 | -6
COCCCN(CC(=O)N(Cc1cccn1Cc1ccccc1Cl)CC(C)C)C(=O)Nc1ccc(C(C)C)cc1 | 22 | 24
CCOCCOC(=O)C1=C(C)NC(=O)NC1c1ccc(OC)cc1 (stereo not drawn) | -14 | -25
C=CCNC(=O)CSc1ncnc2sc3c(c12)CCC3 | -6 | -5
CCOC(=O)C1=C(C)N=c2s/c(=C\c3c(F)cccc3Cl)c(=O)n2C1c1ccc(C)cc1 (stereo not drawn) | -3 | -8
Cc1cccc(S(=O)(=O)Nc2ccc(OC3CCN(C(=O)OC(C)(C)C)C3)cc2)c1 (stereo not drawn) | -3 | -8
C=CCn1c(SCC(=O)Nc2cc(C)on2)nc2c([nH]c3ccccc32)c1=O | 3 | 0
COCC(=O)Nc1ccc(N(C)C)c(CN(CC2CCCO2)C(=O)c2ccccc2Cl)c1 (stereo not drawn) | 5 | 14
Cc1nc(C)c(C(=O)NC(C)c2cnn(-c3ccccn3)c2C)s1 (stereo not drawn) | 11 | 5
C=CCSc1nnc(NC(=O)C2CCN(C=CC(=O)C(F)(F)F)CC2)s1 | 4 | 3
COc1cccc(C(C)(C)CCNC(=O)c2cc([N+](=O)[O-])cc([N+](=O)[O-])c2)c1 | -4 | -8
CCOC(=O)N1CCN(C(=O)Cn2nc(C)c([N+](=O)[O-])c2C)CC1 | 0 | 37

Reformatted with each value named: entries from further up.
Cc1ccc(NC(=O)Cn2c3ccccc3c(=O)c3ccccc32)cc1F
  NPYLR7 ag = -2
  NPYLR7 ag max-min = -8
O=C(c1noc2c1CCCC2)N1CCc2c([nH]c3ccccc23)C1c1ccccc1F (stereo not drawn)
  NPYLR7 ag = -4
  NPYLR7 ag max-min = -7

Following part:
SMILES | NPYLR7 ag | NPYLR7 ag max-min
O=C(O)c1ccc(CSc2nnc(-c3cccs3)n2-c2ccc(F)cc2)cc1 | -1 | -6
COc1ccc(NC(=O)c2cc(Cl)ccc2Cl)c2ccccc12 | 5 | 5
O=C(COc1ccccc1)N1CCc2ccccc2C1c1ccc(F)cc1 (stereo not drawn) | 0 | 13
COc1ccc(C2CC(c3cccs3)=NN2C(=O)Cn2cnc3c(cnn3CCO)c2=O)cc1 (stereo not drawn) | 8 | 5
CCOC(=O)c1c(NC(=O)c2ccc3c(c2)OCO3)sc(C(=O)Nc2ccccc2F)c1C | -5 | -13
Cn1ncc2c(NNC(=O)c3ccc(Cl)cc3Cl)ncnc21 | -3 | 4
CC(C)n1ccnc1CN1CCN(c2ncc(Cl)cn2)CC1 | 3&6 | 1&4
Cc1cc(C(=O)NCC2CCCN(Cc3cn[nH]c3C3CCCCC3)C2)no1 (stereo not drawn) | -6 | -7
CN(C)CCNC1CCS(=O)(=O)C1 (stereo not drawn) | 6 | 3
COc1ccc(C(=O)N(Cc2ccccc2)C2CCC(NC(=O)C3CCN(C(=O)C4CC4)CC3)CC2)cc1 (stereo not drawn) | 2 | 11
CN(C(=O)CCNS(C)(=O)=O)C1CCCCCC1 | -1 | -2
C=CCn1c(=NC(=O)c2cc(OC)c(OC)c(OC)c2)sc2cccc(OC)c21 | 2 | 0
Nc1ccc(-c2csnn2)cc1 | 2 | 0
CCOc1ccccc1CN(C(=O)c1ncccc1C)C1CC1 | 1 | 1
O=C(c1cccc2cnccc12)N1CCC(C(O)c2cccs2)CC1 (stereo not drawn) | -1 | -11
COC(=O)c1ccc(N=CN(C)C)s1 | -13 | -10
COCCn1c(SCc2cccc(OC(F)F)c2)nnc1-c1cc(-c2ccccc2)nc2ccccc12 | 0 | 6
Cn1ccnc1-c1nccn1CCCc1ccccc1 | 0 | -4
CC(C)(C)CNC(=O)C1(C)CCN1C(=O)CC(c1ccccc1)c1ccccc1 (stereo not drawn) | 12 | 10
CCOc1ccc(Cl)cc1S(=O)(=O)NC(C)(C)C | -7 | -10

A portion of the library (hit frequency here may not be typical).
